Screening results as filed in PubChem BioAssay.
RE007 growth inh – less growth of the S. pombe RE007 Vpr strain. Potency, µM (doses to about 92.2 µM), for inactives: at the highest dose activity change, negative = less growth. actives 0.21% (n = 360,000). S. pombe RE007 Vpr strain, BacTiter-Glo ATP luminescence, 24 h; control for the full effect not named in the record. AID 651644; active = well fitted falling curve with a large enough effect; inconclusive = small, poorly fitted or top-dose-only effect; inactive = no such curve, though single readings can be large or run the other way;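 further: on the % scale 0 is the no-effect control and ±100 the full control effect; nearly all actives have a fitted effect of over 50% in size; the assay follows cell death caused by Vpr and the record does not say whether a fall means rescue or toxicity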
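Fission yeast strain RE007, carrying one chromosomally integrated HIV-1 vpr copy, was seeded at OD 0.01 in PMG+AL medium with 23 nL pinned compound. After 24 h at 30 °C and 99% humidity, viability was read by BacTiter-Glo luminescence.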
MARV entry inh – blocks Marburg virus binding to or entry into cells | Marburg virus pseudotyped entry inhibition, cell reporter; control for the full effect not named in the record; about a third of the inactives were read at about 46 µM | Potency, µM (top dose mostly 37.8 µM), for the others: top-dose activity change, negative = inhibition, hits mostly inhibitors | actives 1.8% (n = 300,000); active = well fitted inhibition curve with a large enough effect; inconclusive = small, poorly fitted or top-dose-only effect, or effect the other way; inactive = flat fitted curve, though single readings scatter; tested in HEK293 cells; about a fifth of its hits are not listed in these tables; further: on the % scale 0 is the no-effect control and ±100 the full control effect; luciferase read-out
NS1 inh – blocks influenza NS1 protein function; S. cerevisiae slowed by influenza A NS1, growth recovery by OD600; Potency, µM (series often up to 46.1 µM), without a hit: top-dose activity, positive = more growth; actives 0.4% (n = 270,000); active means well fitted rising curve with a large enough effect; inconclusive means small, poorly fitted or top-dose-only effect; inactive means no such curve, though single readings can be large or run the other way; further: nearly all actives have a fitted effect of over 50% in size
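Compounds were scored for reversing the slow growth caused by influenza A NS1 in S. cerevisiae, measured by optical density at 600 nm. Assay medium contained 2% galactose at pH 6.0; NS1-free yeast of the same strain were the positive control.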
Cruzain inh Det – blocks cruzain activity in presence of Triton detergent | P25779 | purified cruzain, Z-FR-AMC fluorescence, 0.01% Triton | Potency, µM, for the others: max response, negative = inhibition, hits mostly inhibitors | actives 0.43% (n = 200,000) | AID 1478;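 further: plate controls were neutral wells for no effect and buffer without enzyme for full effect; nearly all actives have a fitted effect of over 40% in size; top concentration of the series not given in the record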
Target sequence (P25779 123-467 limits assumed): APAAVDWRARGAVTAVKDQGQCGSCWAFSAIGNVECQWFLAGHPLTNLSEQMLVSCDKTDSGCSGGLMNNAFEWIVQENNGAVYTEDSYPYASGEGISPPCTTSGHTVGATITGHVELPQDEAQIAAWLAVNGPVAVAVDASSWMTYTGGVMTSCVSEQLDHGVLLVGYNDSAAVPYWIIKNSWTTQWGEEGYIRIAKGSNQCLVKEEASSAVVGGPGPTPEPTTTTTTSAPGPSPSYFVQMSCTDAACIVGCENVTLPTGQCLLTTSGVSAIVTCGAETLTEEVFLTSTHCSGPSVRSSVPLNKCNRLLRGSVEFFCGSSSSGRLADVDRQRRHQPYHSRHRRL
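15 min RT preincubation of 1.5 nM cruzain with compound, then 2 uM Z-FR-AMC added; kinetic AMC fluorescence, 60 s delta. Triton X-100 0.01%, pH 5.5.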
SARS PLpro yeast – inhibitors of SARS-CoV papain-like protease in yeast; S. cerevisiae expressing SARS-CoV PLpro, growth rescue; control for the full effect not named in the record; Potency, µM (doses to about 32.9 µM), for inactives: at the highest dose activity, positive = growth rescue; actives 0.19% (n = 330,000); active means well fitted rising curve with a large enough effect; inconclusive means small, poorly fitted or top-dose-only effect; inactive means no such curve, though single readings can be large or run the other way; further: 0% is about no effect; nearly all actives have a fitted effect of over 55% in size; growth read by luminescence after 48 h
2A StopGo – lowers the luciferase signal of an FMDV 2A StopGo reporter; human cells with a luciferase reporter of 2A StopGo recoding; control for the full effect not named in the record; Potency, µM (doses to about 57.9 µM), for inactives: at the highest dose signal change, negative = less light; actives 1.2% (n = 410,000); active = well fitted falling curve with a large enough effect; inconclusive = small, poorly fitted or top-dose-only effect; inactive = no such curve, though single readings can be large or run the other way; tested in HEK293T cells; further: on the % scale 0 is the no-effect control and ±100 the full control effect; nearly all actives have a fitted effect of over 45% in size; luciferase light after 4 h
Cruzain inh noDet – blocks cruzain activity in detergent-free assay; P25779; purified cruzain, Z-FR-AMC fluorescence, no detergent; Potency, µM, inactives show max response, negative = inhibition, most hits filed as inhibitors; actives 2.3% (n = 200,000); AID 1476;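 further: plate controls were enzyme without inhibitor for no effect and buffer without enzyme for full effect; nearly all actives have a fitted effect of over 40% in size; top concentration of the series not given in the record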
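Detergent-free condition (0.00005% Triton X-100) in acetate buffer pH 5.5 with DTT. 1.5 nM enzyme and compound were pre-mixed 15 min, then 2 uM Z-FR-AMC substrate added; reaction progress from fluorescence change between first and third reads (60 s).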
LASV entry inh – Lassa virus entry inhibition; actives 1.2% (n = 300,000); AID 540256; Lassa virus pseudotype entry inhibition, cell reporter; control for the full effect not named in the record; Potency, µM (top dose mostly 37.9 µM), for the others: at the highest dose activity change, negative = inhibition, usual class: inhibitors; active means well fitted inhibition curve with a large enough effect; inconclusive means small, poorly fitted or top-dose-only effect, or effect the other way; inactive means flat fitted curve, though single readings scatter; tested in HEK293 cells; further: on the % scale 0 is the no-effect control and ±100 the full control effect; nearly all actives have a fitted effect of over 50% in size; luciferase read-out
* = called active by the depositor; ? = inconclusive; / = not tested or not shown; & = joins results of further samples; [ ] = another dose, or the depositor's remark. Unless noted, the call rests on the fitted dose curve; in most records, active means well fitted curve in the direction sought with a large enough effect; inconclusive means small, poorly fitted or top-dose-only effect, or another doubt; inactive means no such curve, though single readings can be large; an effect the other way counts as inactive or inconclusive. Potency means the concentration at half of the fitted maximal effect.

SMILES	RE007 growth inh	MARV entry inh	NS1 inh	Cruzain inh Det	SARS PLpro yeast	2A StopGo	Cruzain inh noDet	LASV entry inh
CCOc1ccc(-c2nc(CSc3nncs3)cs2)cc1OC	18%	17%	-24%	-5.1%	28%	-5%	9%	13%
CCc1ccc2oc(C(=O)Nc3cccc(C(F)(F)F)c3)cc(=O)c2c1	/	29%[46.1 µM]	/	-1.5%	/	-14%	-3%	9%[46.1 µM]
Cc1cc(C)cc(OCc2nnc(SCC(=O)c3ccc(Br)cc3)o2)c1	6%	?	-21%	-0.5%	-5%	?	-19%	0%
CC(NC(=S)Nc1ccccc1Cl)C(c1ccccc1)N1CCOCC1 (centres undefined)	-6%	?	1%	-1.7%	22%	8%	4%	-1%
CC1CCN(C(=O)CCc2nnc3ccc(N4CCC5(CC4)OCCO5)nn23)CC1	-12%	5%[46.1 µM]	5%	/	-2%	-1%	/	-7%[46.1 µM]
O=C(Nc1ccncc1)Nc1ccc(Br)cc1Cl	-2%	?	-10%	/	11%	-12%	/	4%[46.1 µM]
CCc1ccccc1OCC(=O)Nc1ccc(S(N)(=O)=O)cc1	-19%	16%	?	11%	-2%	-6%	8%	6%
COc1ccc(NC(=S)N2CCCCC2c2cccnc2)cc1 (centres undefined)	5%	9%	-9%	/	-7%	5%	/	-27%
CC(C)C(=O)Nc1ccc(N2CCCC2)cc1	-2%	13%	14%	-6.5%	6%	40%[activator]	-8%	6%
CCCCCSc1nnc(-c2ccccc2NC(C)=O)c(=O)[nH]1	24%	-13%[46.1 µM]	/	/	2%	19%	/	0%[46.1 µM]
Cc1ccc(NC(=O)Cn2c(-c3cncs3)nc3ccccc32)c(Br)c1	/	-13%[46.1 µM]	/	-0.1%	/	-3%	?	1%[46.1 µM]
CCn1c(SCc2ccccc2)nnc1-c1cccnc1	2%	12%[46.1 µM]	4%	/	-1%	1%	/	0%
Cc1cc(-n2c(=S)sc3c(=O)n(-c4ccc(F)cc4)c(SCC(=O)O)nc32)ccc1Cl	0%	/	?	/	2%	-17%	/	/
CC(C)c1onc(C(=O)N2CCCCCC2)c1[N+](=O)[O-]	1%	2%[46.1 µM]	/	/	3%	-4%	/	3%[46.1 µM]
COc1cc(OC)cc(-c2nnc(SCC(=O)N3CCCc4ccccc43)o2)c1	-20%	?	-30%	0.3%	1%	-29%	?	?
COc1cc2[nH]c(=O)n(CCCCCC(=O)N3CCN(c4ccc(Cl)cc4)CC3)c(=O)c2cc1OC	/	-10%[46.1 µM]	/	-0.6%	/	18µM*	-9%	7%[46.1 µM]
Cn1cc(SCC(=O)Nc2ccc3c(c2)OCCO3)c2ccccc21	0%	/	-35%	-11%	-20%	30%[activator]	3%	/
N/C(=N\OC(=O)Nc1ccccc1)c1ncc([N+](=O)[O-])s1	-7%	?	-55%	/	-14%	-4%	/	-18%
COc1ccc(Cl)cc1NC(=O)C(C)OC(=O)c1ccc(NS(=O)(=O)c2ccc3[nH]c(=O)[nH]c3c2)cc1 (centres undefined)	-12%	0%	?	-4.6%	6%	-2%	-25%	-3%
COc1cc(S(=O)(=O)n2nc(C)cc2C)c(OC)cc1Cl	7%	-5%	-3%	1.2%	-7%	/	-6%	12%
CCCc1ccc(-c2cc(C(=O)NCCc3ccc(S(N)(=O)=O)cc3)c3ccccc3n2)cc1	6%	-17%	-3%	-16%	5%	27%	3%	-12%
C=CCNC1=C(Cl)C(=O)N(c2ccccc2Cl)C1=O	-2%	10%	-13%	-4.6%	-6%	/	1%	-3%
O=C(NNC(=O)c1cc2ccccc2cc1O)c1cccs1	2%	?	-3%	/	13%	-10%	/	11%[46.1 µM]
C=CCn1cccc(C(=O)Nc2cc(OC)c(OC)c(OC)c2)c1=O	-7%	?	/	/	-1%	0%	/	1%
CCC1(C)CC(CC(=O)O)(c2ccccc2OC)CCO1 (centres undefined)	-7%	0%	?	1.6%	-8%	-18%	5%	3%

Brought forward from above: 5 entries; new compounds follow.
SMILES	RE007 growth inh	MARV entry inh	NS1 inh	Cruzain inh Det	SARS PLpro yeast	2A StopGo	Cruzain inh noDet	LASV entry inh
CCCc1ccc(-c2cc(C(=O)NCCc3ccc(S(N)(=O)=O)cc3)c3ccccc3n2)cc1	6%	-17%	-3%	-16%	5%	27%	3%	-12%
C=CCNC1=C(Cl)C(=O)N(c2ccccc2Cl)C1=O	-2%	10%	-13%	-4.6%	-6%	/	1%	-3%
O=C(NNC(=O)c1cc2ccccc2cc1O)c1cccs1	2%	?	-3%	/	13%	-10%	/	11%[46.1 µM]
C=CCn1cccc(C(=O)Nc2cc(OC)c(OC)c(OC)c2)c1=O	-7%	?	/	/	-1%	0%	/	1%
CCC1(C)CC(CC(=O)O)(c2ccccc2OC)CCO1 (centres undefined)	-7%	0%	?	1.6%	-8%	-18%	5%	3%
Cc1ccc(NC(=O)c2ccc(CNS(=O)(=O)c3ccc4c(c3)C(C)(C)C(=O)N4C)cc2)cc1	/	/	/	-3.7%	/	?	18%	20%[46.1 µM]
Cc1ncc(CN2CCCC(C(=O)Nc3ccc(-c4cccc(F)c4)cc3)C2)s1 (centres undefined)	-11%	?	-16%	/	-5%	?	/	-10%
CC(NC(=O)CN(C)CC(=O)Nc1ccc(F)c(F)c1F)c1ccccc1 (centres undefined)	-24%	9%	/	/	0%	-8%	/	24%
COc1cc(OC)c(OC)cc1CN1CCCC(C(=O)c2sccc2C)C1 (centres undefined)	-12%	?	10%	/	0%	-16%	/	-24%
COc1cc(C2/C(=C(\O)c3ccc4c(c3)OCCO4)C(=O)C(=O)N2Cc2ccco2)cc(OC)c1OC (centres undefined)	-4%	-23%[46.1 µM]	10%	/	-5%	-20%	/	4%[46.1 µM]
CCC(CCNC(=O)c1ccccc1)(CCNC(=O)c1ccccc1)[N+](=O)[O-]	-17%	-1%	/	/	/	-18%	/	1%
Cc1ccc(O)c(NC(=O)CCCC(=O)O)c1	10%	9%	-2%	-2.5%	8%	/	-8%	8%
COc1ccc(S(=O)(=O)Nc2ccc(F)c(F)c2)cc1C(=O)N1CCOCC1	11%	-5%[46.1 µM]	-8%	/	3%	36%[activator]	/	4%
Cc1nn(C)cc1/C=N\NC(=O)Cc1ccc([N+](=O)[O-])cc1	-3%	12%	13%	-2.9%	-7%	18%	-11%	-12%
Cc1ccc(-c2nnc(SCC(=O)N/N=C/c3c(C)nn(-c4ccccc4)c3C)n2-c2ccc(C)cc2)cc1	-4%	?	9%	-2.0%	3%	?	5%	7.1µM*
Cc1cc(C)cc(NC(=O)CSc2nc3c(c(=O)n2C)SC(C)C3)c1 (centres undefined)	-10%	/	-17%	-8.4%	-8%	?	-5%	/
CCC(C)NC(=O)c1ccc(CSCc2cccc(F)c2)o1 (centres undefined)	8%	20%	-100%	-3.2%	-2%	8%	-2%	-14%
Cc1ccccc1C(=O)N(Cc1nc(-c2ccc(Cl)cc2)no1)C(C)C	/	-27%[46.1 µM]	/	-8.3%	/	?	11%	?
Cc1ccccc1-c1nc2ccccc2c(=O)n1C1CCS(=O)(=O)C1 (centres undefined)	5%	-2%	-4%	-0.6%	0%	/	5%	15%
Brc1ccc(OCCCOc2cccc3cccnc23)cc1	-24%	19%[46.1 µM]	-84%	/	-4%	-4%	/	20%[46.1 µM]
CCOC(=O)C1CCN(c2nc(-c3ccccc3)nc3c2oc2ccccc23)CC1	-5%	-6%	-66%	-10%	-5%	?	20µM*	-7%
COc1ccc(CN2C(=O)c3ccccc3C2C(=O)NCC2CCCO2)c(OC)c1 (centres undefined)	-4%	23%	-2%	2.1%	0%	-6%	-13%	?
CCCC(=O)NC(=S)Nc1cccc2c(O)cccc12	-7%	0%[46.1 µM]	/	/	-1%	33%[activator]	/	1%[46.1 µM]
O=C1NC(c2ccc(O)cc2)Nc2ccccc21 (centres undefined)	6%	?	13%	/	3%	59%[activator]	/	-11%
Cc1c(C(=O)Nc2ccc3c(c2)OCCO3)sc2ncnc(N3CCCCC3C)c12 (centres undefined)	-11%	/	-39%	/	-12%	?	/	/
CC(C)(C)n1nnnc1C(c1ccccc1F)N1CCN(C2CCCC2)CC1 (centres undefined)	-9%	?	-4%	1.2%	1%	?	-11%	-14%
CCOC(=O)c1ccc2c(c1)N(Cc1ccccc1C)C(=O)c1ccccc1S2=O (centres undefined)	5%	?	-30%	4.7%	-5%	-15%	9%	-7%
Cc1ccc(S(=O)(=O)Nc2cccnc2)cc1	11%	-10%	?	4.3%	3%	12%	-5%	3%
Cc1ccc(C(=O)NCC(=O)NCCCc2ccccc2)s1	-10%	25%[46.1 µM]	?	/	12%	1%	/	0%[46.1 µM]
CCOc1ccc2nc(C)cc(Nc3ccc4c(c3)OCCO4)c2c1	-18%	?	-8%	-2.7%	2%	-13%	3%	?
S=C(Nc1ccc(Oc2ccc(NC(=S)NC3CCCCC3)cc2)cc1)NC1CCCCC1	4%	?	11µM*	-0.5%	11µM*	13%	4µM*	?
C=CCc1ccccc1OCC(O)CN1CCOCC1 (centres undefined)	45%	1%[46.1 µM]	/	/	/	3%	/	-5%
C=CCOc1ccc2c(CC)cc(=O)oc2c1C	-30%	26%	-16%	-8.7%	-22%	1%	3%	?
Cc1ccc(C2/C(=C(/O)c3cnn(-c4ccccc4)c3C)C(=O)C(=O)N2CCN2CCOCC2)o1 (centres undefined)	-1%	10%&10%	1%	3.6%	3%	27%	-7%	?
Cc1ccc(S(=O)(=O)CCC(=O)OCC(=O)Nc2cc(S(=O)(=O)N3CCOCC3)ccc2Cl)cc1	25%	-3%	/	/	/	-19%	/	0%

Some entries already given, limited to RE007 growth inh and NS1 inh.
smiles	RE007 growth inh	NS1 inh
Cc1c(C(=O)Nc2ccc3c(c2)OCCO3)sc2ncnc(N3CCCCC3C)c12 (centres undefined)	-11%	-39%
CCOc1ccc2nc(C)cc(Nc3ccc4c(c3)OCCO4)c2c1	-18%	-8%
C=CCc1ccccc1OCC(O)CN1CCOCC1 (centres undefined)	45%	/
